# Assay outcomes: PubChem, National Center for Advancing Translational Sciences (NCATS)
# LASV entry inh: qHTS for Inhibitors of binding or entry into cells for Lassa Virus; Lassa virus pseudotype entry inhibition, cell reporter; control for the full effect not named in the record; Potency, µM (top dose mostly 37.9 µM), inactives show top-dose activity change, negative = inhibition, actives largely listed as inhibitors; 1.2% of 300,000 active; AID 540256, 2011; active means well fitted inhibition curve with a large enough effect; inconclusive means small, poorly fitted or top-dose-only effect, or effect the other way; inactive means flat fitted curve, though single readings scatter; tested in HEK293 cells; further: on the % scale 0 is the no-effect control and ±100 the full control effect; nearly all actives have a fitted effect of over 50% in size; luciferase read-out
# Marburg entry inh: qHTS for inhibitors of binding or entry into cells for Marburg Virus. Marburg virus pseudotyped entry inhibition, cell reporter; control for the full effect not named in the record; about a third of the inactives were read at about 46 µM. 1.8% of 300,000 active. Potency, µM (titrated, usually from 37.8 µM), inactives show at the highest dose activity change, negative = inhibition, hits mostly inhibitors; active = well fitted inhibition curve with a large enough effect; inconclusive = small, poorly fitted or top-dose-only effect, or effect the other way; inactive = flat fitted curve, though single readings scatter; tested in HEK293 cells; about a fifth of its hits are not listed in these tables; further: on the % scale 0 is the no-effect control and ±100 the full control effect; luciferase read-out
# Cruzain noTriton: qHTS Assay for Promiscuous and Specific Inhibitors of Cruzain (without detergent). Cruzipain (Trypanosoma cruzi), P25779. purified cruzain, Z-FR-AMC fluorescence, no detergent. Potency, µM, for inactives: max response, negative = inhibition, hits mostly inhibitors. 2.3% of 200,000 active;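 further: plate controls were enzyme without inhibitor for no effect and buffer without enzyme for full effect; nearly all actives have a fitted effect of over 40% in size; top concentration of the series not given in the record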
# Target sequence (P25779 123-467 limits assumed): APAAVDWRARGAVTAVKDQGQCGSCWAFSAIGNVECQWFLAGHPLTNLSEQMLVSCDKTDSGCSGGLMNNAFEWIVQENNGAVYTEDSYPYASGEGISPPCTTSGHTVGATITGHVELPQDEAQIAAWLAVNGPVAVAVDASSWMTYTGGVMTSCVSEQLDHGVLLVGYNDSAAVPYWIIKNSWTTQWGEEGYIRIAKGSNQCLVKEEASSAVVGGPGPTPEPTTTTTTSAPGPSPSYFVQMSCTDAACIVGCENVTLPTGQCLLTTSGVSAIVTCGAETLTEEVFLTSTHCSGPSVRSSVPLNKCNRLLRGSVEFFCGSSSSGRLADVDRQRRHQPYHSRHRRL
#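 Detergent-free condition (0.00005% Triton X-100) in acetate buffer pH 5.5 with DTT. 1.5 nM enzyme and compound were pre-mixed 15 min, then 2 uM Z-FR-AMC substrate added; reaction progress from fluorescence change between first and third reads (60 s).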
# SARS PLpro yeast: qHTS of Yeast-based Assay for SARS-CoV PLP; S. cerevisiae expressing SARS-CoV PLpro, growth rescue; control for the full effect not named in the record; Potency, µM (top dose mostly 32.9 µM), for inactives: at the highest dose activity, positive = growth rescue; 0.19% of 330,000 active; AID 485353, 2010; active means well fitted rising curve with a large enough effect; inconclusive means small, poorly fitted or top-dose-only effect; inactive means no such curve, though single readings can be large or run the other way; further: 0% is about no effect; nearly all actives have a fitted effect of over 55% in size; growth read by luminescence after 48 h
# Cruzain Triton: qHTS Assay for Promiscuous and Specific Inhibitors of Cruzain (with detergent); AID 1478, 2009; 0.43% of 200,000 active; purified cruzain, Z-FR-AMC fluorescence, 0.01% Triton; Potency, µM, for the others: max response, negative = inhibition, most hits filed as inhibitors;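 further: plate controls were neutral wells for no effect and buffer without enzyme for full effect; nearly all actives have a fitted effect of over 40% in size; top concentration of the series not given in the record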
#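 Sodium acetate buffer (100 mM, pH 5.5) containing 5 mM DTT and 0.01% Triton X-100 hosted 1.5 nM cruzain and test compound for 15 min at room temperature. Cleavage of 2 uM Z-FR-AMC was then tracked by fluorescence.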
# StopGo reporter: High Throughput Screening for Foot and Mouth Disease Virus Antivirals; human cells with a luciferase reporter of 2A StopGo recoding; control for the full effect not named in the record; Potency, µM (top dose mostly 57.9 µM), without a hit: at the top dose signal change, negative = less light; 1.2% of 410,000 active; active = well fitted falling curve with a large enough effect; inconclusive = small, poorly fitted or top-dose-only effect; inactive = no such curve, though single readings can be large or run the other way; tested in HEK293T cells; further: on the % scale 0 is the no-effect control and ±100 the full control effect; nearly all actives have a fitted effect of over 45% in size; luciferase light after 4 h
# RE007 growth inh: qHTS Assay for Inhibitors of the HIV-1 protein Vpr. S. pombe RE007 Vpr strain, BacTiter-Glo ATP luminescence, 24 h; control for the full effect not named in the record. Potency, µM (series often up to 92.2 µM), inactives show at the highest dose activity change, negative = less growth. 0.21% of 360,000 active. AID 651644, 2012; active = well fitted falling curve with a large enough effect; inconclusive = small, poorly fitted or top-dose-only effect; inactive = no such curve, though single readings can be large or run the other way;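 further: on the % scale 0 is the no-effect control and ±100 the full control effect; nearly all actives have a fitted effect of over 50% in size; the assay follows cell death caused by Vpr and the record does not say whether a fall means rescue or toxicity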
#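 Fission yeast RE007 carrying one integrated HIV-1 vpr copy, seeded at OD 0.01 in PMG+AL medium with 23 nL pinned compound. Grown 24 h at 30 degrees; viability read by BacTiter-Glo luminescence after 5 min.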
# NS1 function inh: qHTS Assay for Inhibitors of Influenza NS1 Protein Function | S. cerevisiae slowed by influenza A NS1, growth recovery by OD600 | Potency, µM (top dose mostly 46.1 µM), for inactives: at the top dose activity, positive = more growth | 0.4% of 270,000 active | AID 2326, 2010; active means well fitted rising curve with a large enough effect; inconclusive means small, poorly fitted or top-dose-only effect; inactive means no such curve, though single readings can be large or run the other way; further: nearly all actives have a fitted effect of over 50% in size
#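 Growth recovery, yeast-based: influenza A NS1 expressed in S. cerevisiae causes slow growth, and suppressors are detected by OD600. The parent strain without NS1 is used as positive control.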
# The depositor's hits bear a star; ? = inconclusive; . = no result given; [ ] = remark or other dose. Unless noted, the call rests on the fitted dose curve; in most records, active means well fitted curve in the direction sought with a large enough effect; inconclusive means small, poorly fitted or top-dose-only effect, or another doubt; inactive means no such curve, though single readings can be large; an effect the other way counts as inactive or inconclusive. Potency means the concentration at half of the fitted maximal effect.
Molecule	LASV entry inh	Marburg entry inh	Cruzain noTriton	SARS PLpro yeast	Cruzain Triton	StopGo reporter	RE007 growth inh	NS1 function inh
CCN(CC)S(=O)(=O)c1ccc(C(=O)NCc2ccc3[nH]c4c(c3c2)CCCC4)cc1	?	-11%	?	-10%	-3.0%	-16%	5%	?
COc1ccc(C=Nc2ccc3[nH]ncc3c2)c(O)c1	15%[46.1 µM]	?	.	-1%	.	25%	12%	6%
C=CCOC(=O)C1=C[C@H](c2csc3ccccc23)[C@@H](CCCO)[C@H](OCC)O1	.	.	.	0%	.	-18%	2%	0%
CCc1ccc(NC(=O)CCS(=O)(=O)c2cccc3nsnc23)cc1	-5%	22%	-6%	-4%	1.3%	18%	-12%	-60%
COc1ccc(-c2ccc(Nc3ccc(S(=O)(=O)N4CCCC4)cc3)nn2)cc1OC	?	15µM*	19%	4%	-7.8%	14µM*	2%	2%
COc1cccc2c(N/N=C/c3ccccc3)cc(C)nc12	.	.	.	0%	.	-27%	-18%	-40%
Cc1ccc(NS(=O)(=O)c2ccc(N/N=C/c3ccccc3OCC(=O)O)c([N+](=O)[O-])c2)c(C)c1	.	.	.	0%	.	-12%	9%	9%
CC(NC(=S)NCc1ccccc1)C12CC3CC(CC(C3)C1)C2 (stereo not given)	14%[46.1 µM]	-1%[46.1 µM]	.	1%	.	20%	-1%	-1%
O=C(Cn1nc(Br)nc1Br)c1ccccc1	?	?	.	0%	.	-5%	23%	2%
CCOC(=O)C1CCCN(C(=O)c2cccc(S(=O)(=O)N(Cc3ccccc3)c3ccccc3OC)c2)C1 (stereo not given)	-23%	-25%	.	-1%	.	-26%	-4%	.
Cc1ccc(O/C=C2\OC(=O)c3ccccc32)cc1	-3%	?	-6%	-1%	-1.2%	15%	7%	-5%
CC(=O)Nc1ccc(CN2CCCCCC2)cc1	.	.	.	-1%	.	-2%	-2%	-2%
COc1cccc(C(=O)N2CCCC(CCC(=O)NCc3ccc(F)c(F)c3)C2)c1 (stereo not given)	0%	-22%	.	-1%	.	-3%	-10%	-9%
COc1ccc(C2C(C(=O)Nc3cccnc3)=C(C)Nc3nc(-c4cccs4)nn32)cc1 (stereo not given)	5%	?	19%	1%	-3.9%	-20%	-13%	16%
COC(=O)CN=Cc1c(C)[nH]n(-c2ccccc2)c1=O	7%	0%[46.1 µM]	.	-5%	.	14%	-12%	.
COc1ccc(NC(=O)CCn2c(=O)c3cccn3c3cccnc32)c(OC)c1	5%[46.1 µM]	.	5%	.	-0.6%	-3%	.	.
Cn1c(C(=O)N2CCN(c3ccccn3)CC2)cc2ccccc21	.	.	.	1%	.	-14%	-17%	-30%
C=C1C2[C@H](OC(C)=O)[C@@H]3CC(=O)[C@]4(C)OC[C@@]3(C)[C@@]4(O)[C@@H](OC(C)=O)[C@H](OC(C)=O)[C@@]2(COC(=O)c2ccccc2)[C@@H](OC(C)=O)C[C@@H]1O (stereo not given in full)	.	.	.	?	.	-12%	-2%	-16%
Cc1c(C(=O)N(Cc2ccc(N(C)C)cc2)CC2CCCO2)oc2ccc(Cl)cc12 (stereo not given)	.	-21%[46.1 µM]	-3%	.	-0.5%	8%	.	.
Cc1cc2nc3c(=O)n(Cc4ccccc4)c(=O)[nH]c3nc2cc1N	-11%	19%[46.1 µM]	.	-2%	.	0%	0%	-1%
Cc1cccc(N2C(=O)NC(=O)/C(=C\c3ccc4c(c3)CCCN4Cc3ccccc3)C2=O)c1	-28%	-5%	19%	12%	-12%	0%	30%	11%
CCOC(=O)C(NS(=O)(=O)c1ccc(C)cc1)(C(F)(F)F)P(=O)(OCC(C)C)OCC(C)C (stereo not given)	?	?	?	-2%	-3.7%	?	8%	12%
COC(=O)c1ccc(/C=N\NC(=O)c2ccc(C)cc2Cl)cc1	?	-6%	0%	-2%	9.8%	.	4%	-2%
CC(C)Oc1ccc(CNC(=O)c2ccc3c(c2)nc2n3CCCCC2)cc1	?	.	18%	.	-4.6%	45%[activator]	.	.
Cn1c(CNC(=O)c2ccc(Cl)cc2)nnc1SCC(=O)N1CCOCC1	0%	8%	.	2%	.	1%	17%	-4%
CCc1nn(-c2ccccc2)c2c1-c1cc(OC)c(OC)cc1C1(N2)C(=O)Nc2ccccc21 (stereo not given)	-28%	-19%	?	4%	-7.4%	-1%	-2%	28%
COc1ccc(CCNC(=O)c2cc(=O)[nH]c3ccccc23)cc1	.	?	.	-1%	.	3%	18%	11%
CCCCCC(=O)Nc1cccc(C2=NOC3(C2)C[C@H](C(N)=O)N(C(=O)CCCCC)C3)c1 (stereo not given in full)	.	.	.	1%	.	-24%	-1%	-2%
COc1ccc(N2C(=O)C3CCCN3C2c2cccc(C)c2)cc1 (stereo not given)	.	.	-2%	6%	2.5%	7%	-1%	?
COc1ccccc1C1C(C#N)=C(N)N(c2cccnc2)C2=C1C(=O)CC(C)(C)C2 (stereo not given)	-2%	2%	-8%	-4%	-2.1%	-21%	2%	-5%

# Continuation:
smiles | LASV entry inh | Marburg entry inh | Cruzain noTriton | SARS PLpro yeast | Cruzain Triton | StopGo reporter | RE007 growth inh | NS1 function inh
O=C(NCCN1CCOCC1)Nc1ccc(F)cc1 | 10%[46.1 µM] | -7%[46.1 µM] | . | -1% | . | 18% | 18% | 3%
CCOCCCNS(=O)(=O)c1cc(Br)cc2c1N(C(=O)C1CC1)CC2 | 2% | 7% | 2% | -3% | -1.7% | 45%[activator] | 6% | -3%
COc1ccc(C2c3ccc(O)cc3Oc3ncn4nc(-c5ccco5)nc4c32)cc1OC (stereo not given) | 21% | 0%[46.1 µM] | . | 1% | . | -27% | 8% | 2%
COc1ccc(CCNC(=O)COc2ccc(S(=O)(=O)NC3CCCCC3)cc2Cl)cc1OC | -5% | ? | ? | 15% | -3.2% | -24% | 7% | -14%
COc1ccc(NC(=O)C2CC(=O)N(CCc3ccc(Cl)cc3)C2)cc1 (stereo not given) | ? | -12% | . | 14% | . | -3% | 4% | 3%
O=C(Cc1ccccc1)NCCSC1CCCCC1 | . | . | . | 0% | . | 19% | 3% | -3%
CCN(c1cccc(C)c1)S(=O)(=O)c1csc(C(N)=O)c1 | 10% | -10%[46.1 µM] | . | 2% | . | -12% | -11% | -1%
Cc1ccc(-c2nn3nnnc3c3ccccc23)cc1 | 0% | -1% | 3% | 3% | 1.2% | -17% | -8% | -15%
CN(C)c1nc(OCCNC(=O)COc2ccc(Cl)cc2Cl)nc(N(C)C)n1 | 5% | -1% | ? | 24% | 6.4% | ? | -11% | 7%
COc1ccccc1NS(=O)(=O)c1ccc(O)cc1 | 10% | -3% | 3% | -4% | 0.4% | 0% | -14% | 0%
CCCCCCSc1nnc(-c2cnn(-c3ccccc3)c2-n2cccc2)n1C | 2% | -22%[46.1 µM] | 4% | -37% | -4.2% | -21% | 6% | -79%
O=C(Nc1ccc(Oc2cccnc2)cc1)c1ccccc1Cl | 0%[46.1 µM] | -1%[46.1 µM] | 7% | -17% | -3.3% | 13% | -16% | -8%
CN1CCc2nc(SCC(=O)Nc3cccc(F)c3)c(C#N)c(-c3cccs3)c2C1 | 4% | -23% | 20µM* | -4% | -0.1% | 14% | 8% | 26%
O=C(NCC(=O)N1CCCC(C(F)(F)F)C1)c1ccc2ccccc2c1 (stereo not given) | 7% | 4%[46.1 µM] | . | -2% | . | 3% | -11% | .
O=C1N=C(N2CCCC2)S/C1=C\c1cccc(Br)c1 | -3% | -7% | 11% | -18% | -5.1% | 14% | 9% | .
CCCn1c(Nc2ccccc2)nc2ccccc21 | 15% | 18% | 0% | -2% | 2.9% | -10% | 5% | -4%

# Overlap with the part before: 4 compounds; new compounds follow.
smiles | LASV entry inh | Marburg entry inh | Cruzain noTriton | SARS PLpro yeast | Cruzain Triton | StopGo reporter | RE007 growth inh | NS1 function inh
CN1CCc2nc(SCC(=O)Nc3cccc(F)c3)c(C#N)c(-c3cccs3)c2C1 | 4% | -23% | 20µM* | -4% | -0.1% | 14% | 8% | 26%
O=C(NCC(=O)N1CCCC(C(F)(F)F)C1)c1ccc2ccccc2c1 (stereo not given) | 7% | 4%[46.1 µM] | . | -2% | . | 3% | -11% | .
O=C1N=C(N2CCCC2)S/C1=C\c1cccc(Br)c1 | -3% | -7% | 11% | -18% | -5.1% | 14% | 9% | .
CCCn1c(Nc2ccccc2)nc2ccccc21 | 15% | 18% | 0% | -2% | 2.9% | -10% | 5% | -4%
Oc1ccc(CNCC2COc3ccccc3O2)cc1 (stereo not given) | ? | 1% | -2% | 5% | 0.5% | 20% | 3% | -1%
COCCCNC(=O)CC(C)c1ccccc1 (stereo not given) | -6% | 0% | 2% | 3% | -3.2% | -17% | . | 13%
CCCNC(=O)C1(O)c2cc(Br)ccc2NC(=O)N1c1ccc(Cl)cc1 (stereo not given) | . | . | . | -1% | . | 0% | 23% | 1%
CC(=O)N1CCCc2cc(S(=O)(=O)N3CCC(C(=O)Nc4c(C)cccc4C)CC3)ccc21 | -7%[46.1 µM] | . | 13% | . | -1.0% | ? | . | .
COc1cc(/C=C/[N+](=O)[O-])ccc1OC(=O)c1cccnc1 | . | . | . | -12% | . | ? | 8.9µM* | -98%
Cc1cc(N2CCCCC2C)nc(-c2ccccc2O)n1 (stereo not given) | ? | 0% | . | -4% | . | -1% | -16% | -5%
